High-throughput results: PubChem, National Center for Advancing Translational Sciences (NCATS)
TRPML1 agonist = activates the human TRPML1 channel; Q9GZU1; TRPML1-expressing cells, Ca2+ dye fluorescence, FDSS; host cell line not named in the record; reference of the full effect not given here; activation, % (no concentration beside the values); 410,000 tested, 0.12% active; AID 624414; in the data active = activation above about 50%; inconclusive = about 30% to 50%; inactive = below about 30%; further: 0% is about no effect; the text of the record puts the active cut at 80%
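Agonist activity was taken from a 110 s kinetic Ca2+ dye read on the FDSS after pinning compounds onto TRPML1-DL cells. The cells were seeded at 1,500/well with Tet inducer, incubated about 16 h, then dye-loaded at room temperature.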
TRPML1 inh = human mucolipin-1 channel inhibition; TRPML1-inducible cells, Ca2+ dye fluorescence, FDSS; hits give low values; inhibition of EC80 agonist-evoked calcium signal; activity change, negative = inhibition, % (test concentration not listed); 390,000 tested, 0.02% active; in the data active means activity change below about -50%; inconclusive means about -30% to -50%; inactive means above about -30%;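 further: stimulus is agonist 54-4 at its EC80 concentration; on the % scale 0 is the no-effect control and ±100 the full control effect; compound concentration not given in the record; the text of the record puts the active cut at -80%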
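TRPML1-DL cells, Tet-induced overnight (~16 h, 37 °C) at 1,500 cells/well, were loaded with Ca8 no-wash dye plus quencher for 45-90 min at room temperature. Compounds were pinned during FDSS kinetic reading; agonist 54-4 at EC80 (4 uM final) then added.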
Six1-Eya2 blk = blocks human Six1 binding to Eya2. AID 651725. activity change, % (test concentration not listed). AlphaScreen GST-Six1/His-Eya2 binding, biochemical; hits give low values; control for the full effect not named in the record. 360,000 tested, 0.56% active; in the data active = activity change below about -65%; inconclusive = about -30% to -65%; inactive = above about -30%; further: on the % scale 0 is the no-effect control and ±100 the full control effect; compound concentration not given in the record
Target sequence (O00167 whole entry, looked up): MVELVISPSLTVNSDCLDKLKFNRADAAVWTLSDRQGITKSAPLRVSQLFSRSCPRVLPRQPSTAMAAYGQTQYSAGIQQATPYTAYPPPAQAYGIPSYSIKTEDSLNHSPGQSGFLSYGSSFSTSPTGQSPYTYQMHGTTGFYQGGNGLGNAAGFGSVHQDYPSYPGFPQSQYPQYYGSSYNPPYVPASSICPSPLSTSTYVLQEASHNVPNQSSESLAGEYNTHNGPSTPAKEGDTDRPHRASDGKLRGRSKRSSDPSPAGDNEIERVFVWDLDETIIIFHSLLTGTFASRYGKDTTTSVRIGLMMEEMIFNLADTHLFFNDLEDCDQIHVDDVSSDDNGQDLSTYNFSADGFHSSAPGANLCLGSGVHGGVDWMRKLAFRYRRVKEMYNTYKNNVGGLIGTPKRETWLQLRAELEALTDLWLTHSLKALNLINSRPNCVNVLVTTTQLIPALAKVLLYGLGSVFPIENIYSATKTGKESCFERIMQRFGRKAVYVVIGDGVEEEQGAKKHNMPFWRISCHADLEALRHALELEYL
Target sequence (Q15475 whole entry, looked up): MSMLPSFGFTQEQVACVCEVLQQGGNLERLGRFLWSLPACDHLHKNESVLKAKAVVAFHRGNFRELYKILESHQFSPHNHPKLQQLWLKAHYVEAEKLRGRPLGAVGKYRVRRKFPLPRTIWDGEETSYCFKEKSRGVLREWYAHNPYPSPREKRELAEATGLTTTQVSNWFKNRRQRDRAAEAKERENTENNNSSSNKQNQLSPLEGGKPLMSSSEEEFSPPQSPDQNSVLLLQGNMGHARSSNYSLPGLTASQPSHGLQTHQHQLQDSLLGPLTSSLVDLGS
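Homogeneous AlphaScreen proximity assay pairing GST-Six1 with His-tagged Eya2 (added as 5X mix: 250 nM and 500 nM) in 50 mM Tris pH 8.0, 300 mM NaCl, 1 mM TCEP. Glutathione donor and nickel acceptor beads; 1 h, 37 °C, dark.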
PINK1 modulator = modulators of PINK1 expression; PINK1 immunofluorescence, high-content cytometry, 24 h; Potency, µM (doses to about 76.6 µM), without a hit: at the top dose activation (PINK1 increase), actives largely listed as activators; 410,000 tested, 0.2% active; AID 624263; active = well fitted activation curve with a large enough effect; inconclusive = small, poorly fitted or top-dose-only effect; inactive = flat fitted curve, though single readings scatter; cell line not stated here;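 further: potency means the concentration at half of the fitted maximal effect; % of control where 0% means no effect; nearly all actives have a fitted effect of over 65% in size; a mitochondrial uncoupler was the plate control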
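PINK1 protein, normally rapidly degraded, was detected by immunofluorescence after 24 hour compound treatment of a stable cell line. Titration data (5 concentrations) came from laser-scanning cytometry, with CCCP-treated wells as controls.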
CtBP-E1A inh = inhibitors of CtBP/E1A interaction | AlphaScreen GST-E1A/His-CtBP binding, 1536-well; hits give low values; control for the full effect not named in the record | activity change, % (concentration not given with the values) | 340,000 tested, 0.49% active | AID 651724; in the data active means activity change below about -65%; inconclusive means about -30% to -65%; inactive means above about -30%; further: on the % scale 0 is the no-effect control and ±100 the full control effect
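Steps: dispense buffer (Tris pH 8.0, NaCl 300 mM, TCEP 1 mM, BSA, Tween 20); add 5X protein mix (GST-E1A, His-CtBP, 125 nM each); pin 23 nL compound; 2 h at 37 °C, dark; add 5X beads (50 ug/mL); 1 h; read.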
D2 agonist = human D2 receptor agonism in beta-arrestin assay. P14416. DiscoveRx PathHunter D2 beta-arrestin, luminescence, 90 min; 100% = 57 uM dopamine signal. activation, % (test concentration not listed). 360,000 tested, 0.084% active. AID 624465; in the data active = activation above about 40%; inconclusive = about 15% to 40%; inactive = below about 15%; further: compound concentration not given in the record; the text of the record calls up to 30% inactive
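DiscoveRx PathHunter D2 beta-arrestin cells (2,100/well) attached overnight, then compound-stimulated 90 min at 37 C in HBSS/10 mM HEPES/0.1% Tween-20 buffer; beta-galactosidase complementation read by luminescence after 1 h at ambient temperature. Dopamine 57 uM final (EC100) as control.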
* marks the source's active call; other numbers are inactive results; ? = inconclusive; . = not tested or not shown; & = joins results of further samples; [ ] = remark or other dose.

SMILES	TRPML1 agonist	TRPML1 inh	Six1-Eya2 blk	PINK1 modulator	CtBP-E1A inh	D2 agonist
Cn1c(N=Nc2ccccc2)nc2ccccc21	5.4	3	0	0.5%	-26	-11
Cc1ccccc1CS(=O)(=O)Cc1ccc(C(=O)N2CCOCC2)o1	1.8	9	1	7.5%	1	-2.2
Cc1nn(-c2ccccc2)c(C)c1/C=N/NC(=O)CSc1nc2ccccc2c(=O)n1-c1ccccc1	-0.4	5	2	4.8%	11	-1.4
NC(=O)C1CCN(C(=O)CCC(=O)N2CCOc3ccc(Cl)cc32)CC1	0.0	7	3	-0.6%	1	-1.9
O=C(N=C1SC2CS(=O)(=O)CC2N1c1cccc(Cl)c1Cl)C1CC1 (stereo not given)	0.2	18	6	-0.5%	12	-1.0
Cc1cc(C)n2c(NC3CCCCC3)c(CC(C)C)nc2n1	-0.9	.	1	-0.7%	-1	.
CCOc1ccc(C2=C/C(=C/c3cccnc3)C(=O)O2)cc1	10	-4	2	-0.8%	-3	-8.2
C=CCSc1nnc(NC(=O)CSc2nc(CCC)cc(=O)[nH]2)s1	1.9	35	5	-1.1%	-1	0.9
COC(=O)c1cccc(CSC(=S)N2CCCC2)c1	.	.	-26	1.7%	-9	-3.4
COc1cccc(NC(=O)C2(C)CCN2CC2CCCCC2)c1 (stereo not given)	-0.9	.	5	-0.1%	6	-2.4
O=C(N/N=C/c1ccc2c(c1)OCO2)c1cccc(NC(=O)c2ccccc2Cl)c1	2.7	1	-21	3.3%	-20	0.0
CCOC(=O)c1c(NC(=O)Cn2nc(C(F)(F)F)cc2C)sc2c1CCC2	0.5	20	0	3.1%	-2	-4.0
Cc1cc(C)c(NC(=O)Cc2ccc(-n3cccc3)cc2)c(C)c1	-0.3	-14	2	1.2%	1	-0.6
Cc1cccc(-c2nnc(-c3ccc(N)cc3)o2)c1	-0.7	-6	8	2.2%	-1	-0.5
O=C(NC(NC1CCS(=O)(=O)C1)C(Cl)(Cl)Cl)c1cccc(Cl)c1 (stereo not given)	0.0	11	-1	3.0%	-10	-0.7
COc1ccc(OC)c(-n2c(C)ccc2-c2ccc(S(C)(=O)=O)cc2)c1	0.9	-6	-17	3.3%	-2	-3.9
CS(=O)(=O)c1ccc(Cl)c(NC(=O)CCN2C(=O)NC3(CCCC3)C2=O)c1	0.2	12	5	3.1%	-2	1.4
COCCCC1CCN(C(=O)C2CCC(=O)N(Cc3ccccc3F)C2)CC1 (stereo not given)	1.2	-10	8	-0.9%	17	-3.2
O=C(COC(=O)c1ccc([N+](=O)[O-])s1)NCc1ccc(F)cc1	1.4	-7	0	1.1%	-2	5.1
O=C(NCc1ccccc1)C1CCCN(S(=O)(=O)c2cccnc2)C1 (stereo not given)	-0.2	2	0	1.0%	0	-0.9
Cc1noc(C)c1C(=O)N(CC(=O)Nc1ccccc1Br)Cc1ccco1	0.2	12	6	-0.9%	1	0.3
CC1(C(=O)Nc2cccc(Oc3ccccc3)c2)Cc2c(-c3ccccc3)ccnc2O1 (stereo not given)	0.7	.	-1	4.7%	-8	-5.7
Cc1cc(=O)oc2cc(NC(=O)C(CCCN=C(N)N)NC(=O)OCc3ccccc3)ccc12 (stereo not given)	0.0	-52*	-1	1.8%	.	0.3
N#Cc1ccc(NC(=O)c2cc(-c3cccc(Cl)c3)on2)cc1	0.0	16	.	0.5%	.	.
Cc1cc(O)ccc1NC(=O)c1ccccc1	-0.2	14	-1	1.4%[38.3 µM]	7	-0.9
CCOC(=O)c1cnc(-n2nc(C)cc2C)nc1NC1CCCCC1	0.5	7	-6	-0.9%	-11	2.0
O=S(=O)(c1ccc(F)c(F)c1F)N1CCN(C(=S)Nc2ccccc2)CC1	0.4	14	1	-1.7%	-1	-2.0
COC(=O)[C@H](CC(C)C)N(Cc1ccccc1)S(=O)(=O)N(Cc1ccccc1)[C@@H](CC(C)C)C(=O)OC	0.6&1.3	0	7	3.8%	4	-1.5
O=C(NCc1ccccn1)C1CCCN(S(=O)(=O)c2ccccc2)C1 (stereo not given)	-0.6	-1	15	1.3%[38.3 µM]	54	0.5
CS(=O)(=O)c1cccc(-c2nnc(NC(=O)c3ccc4c(c3)OCCO4)o2)c1	-0.5	1	.	1.3%	.	.
CCN(CC)S(=O)(=O)c1cc(OC)c(C)cc1C	-0.6	12	6	-1.6%	7	0.4
O=C(c1ccc(Cl)cc1)C1CCCN(Cc2cnn(-c3ccccc3)c2)C1 (stereo not given)	-0.7	-5	-19	14%	-13	-2.9
COc1cc(C(=O)Nc2ccc3c(c2)OCO3)ccc1OCc1c(C)noc1C	0.9	16	-7	4.1%	-13	-3.0
Cc1cc(C(=O)COc2ccc(-c3nnco3)cc2)c(C)n1Cc1ccccc1	-0.1	-5	-20	3.2%[38.3 µM]	-21	-0.5
c1ccc2c(c1)Cn1nnnc1-2	1.5	9	2	3.8%[38.3 µM]	5	-4.1
CCN1CCN(Cc2ccc(NC(=O)c3cc(NC(=O)C(=O)c4c[nH]c5ccccc45)cc(OC)c3)cc2C(F)(F)F)CC1	0.3&2.8	3&13	-13&-17	-2.7%&-2.2%	-4&-15	2.0&-1.0
CCCNC(=O)N1CCCC(C(=O)c2cccc(Cl)c2)C1 (stereo not given)	2.6	-13	4	-1.3%	.	7.2
O/N=C/c1cc(Br)ccc1OCc1cccc(F)c1	1.9	47	-1	-1.7%	3	4.5
O=C(CSc1nnc(COc2ccccc2Cl)o1)NC(=O)NCc1ccco1	1.8	-6	-8	-1.5%	-2	5.5
COc1ccc(/C=N/NC(=O)c2ccc(NC(=O)c3cccc([N+](=O)[O-])c3)cc2)c(C(=O)O)c1OC	-0.9	-2	-24	2.3%	-11	-1.5

In the list so far, these have bromine:
SMILES	TRPML1 agonist	TRPML1 inh	Six1-Eya2 blk	PINK1 modulator	CtBP-E1A inh	D2 agonist
Cc1noc(C)c1C(=O)N(CC(=O)Nc1ccccc1Br)Cc1ccco1	0.2	12	6	-0.9%	1	0.3
O/N=C/c1cc(Br)ccc1OCc1cccc(F)c1	1.9	47	-1	-1.7%	3	4.5

Carrying on.
SMILES	TRPML1 agonist	TRPML1 inh	Six1-Eya2 blk	PINK1 modulator	CtBP-E1A inh	D2 agonist
CCCCC(O)(c1ccc(CC)cc1)C(CN1CCOCC1)c1ccccc1 (stereo not given)	.	.	7	9.2%	7	-3.2
CN1CCC(N(C)C(=O)/C(C#N)=C\c2ccc(OC(F)F)cc2)CC1	0.8	2	-6	2.2%	-17	-3.0
Cc1ccc(NC(=S)N(CCCN2CCC(C)CC2)Cc2ccco2)cc1	0.6	46	-2	-1.0%	2	-3.8
CCOC(=O)c1ccc(N2C(=O)CC(Sc3ncccn3)C2=O)cc1 (stereo not given)	.	.	0	2.3%	.	-0.6
Cc1ccccc1NCc1nc2ccccc2n1C	0.5	20	-4	0.8%	-16	-2.2
Cc1cccc(C)c1NC(=O)CNC(=O)C(C)N1CCN(c2cccc(Cl)c2)CC1 (stereo not given)	0.5	-16	0	0.1%	-11	-0.2
COc1ccc(C2C(C#N)=C(N)N(c3ncn[nH]3)C3=C2C(=O)CCC3)cc1 (stereo not given)	1.5	1	-21	-0.1%	.	7.2
CCN(CC)S(=O)(=O)c1ccc(NC(=O)[C@H](CCSC)N2Cc3ccccc3C2=O)cc1	-0.3	6	.	2.2%	.	.
O=S(=O)(c1ccccc1)N1CCN(Cc2ccccc2)CC1	-1.2&0.1	22	3	-0.3%&-0.5%	-2	-4.5
C[C@@H]1NC(=O)[C@@]2(C)[C@@H](c3ccccc3)[C@H]3COc4ccc(Cl)cc4[C@@H]3N2C1=O	-0.7	-12	4	-0.4%	4	-5.1
COc1ccc(CNC(=O)c2c(Nc3ccccc3C)sc(C(=O)c3ccccc3)c2N)cc1	2.9	10	.	?	.	.
CC(=O)Nc1ccc(S(=O)(=O)N2CCOCC2)cc1	-0.6	-2	-3	2.2%[38.3 µM]	3	-0.9
CCOc1cc(C(C#N)N2CCOCC2)ccc1OC (stereo not given)	-0.4	-10	2	-4.1%	-3	-5.7
COc1ccc(C(C)=O)cc1CSc1nc2ccccc2o1	0.6	31	1	0.8%	7	-0.8
CSc1ccccc1NC(=O)Nc1cccc(Cl)c1	2.3	-2	0	7.3%[38.3 µM]	9	-1.1
COc1ccc(N2CC(C(=O)OCC(=O)Nc3cc(C)on3)CC2=O)cc1 (stereo not given)	-0.6	10	-3	2.1%	4	0.2
COC(=O)c1ccc(Cn2cnc3c(N)ncnc32)cc1	0.4	21	13	3.4%	0	-2.5
Cc1ccc(C(=O)NCCn2cc(SCC(=O)N3CCOCC3)c3ccccc32)cc1	-0.1	-3	-1	0.7%	-6	-2.6
CC1(C(=O)O)CCN1C(=O)/C=C/c1ccccc1 (stereo not given)	-0.5	.	3	4.7%	4	-5.6
O=C(COc1ccc([N+](=O)[O-])cc1Cl)N1CCOCC1	-0.3	0	0	-0.1%	.	-7.3
O=S(=O)(Nc1ccc(Cl)cc1)c1ccc2c(c1)CCO2	0.9	-15	-6	2.4%	0	-0.8
Cc1cc(C)nc(/N=C(\N)N2CCc3ccccc32)n1	-0.7	-6	3	-0.4%	6	3.3
C[C@H](NC(=O)c1ccccc1Cl)C(=O)OCCOc1ccc(Cl)cc1	2.9	33	-1	-0.1%	6	-3.1
CC(C)(C)NC(=O)NC(=O)COC(=O)CNS(=O)(=O)/C=C/c1ccccc1	0.2	-4	8	2.4%	9	-2.1
Cc1ccc(Nc2nc(Oc3ccc(OCc4ccccc4)nn3)nc(N3CCOCC3)n2)cc1	0.2	-6	-4	0.6%	-1	-3.2
O=C(Nc1ccc(-n2cccc2)cc1)C1CC1	0.4	12	-13	0.1%	-28	-4.4
COc1ccc(N(CC(=O)NC2CC2)S(=O)(=O)c2ccccc2)cc1	-0.3	-6	10	2.0%	21	0.0
CC(=O)Nc1ccc(C(=O)OCC(=O)N2CCCC2=O)cc1	1.7	-15	2	-0.6%	2	-5.4
Cn1c(NCCN2CCCC2)nc2cc(-c3ccccc3)sc2c1=O	-0.1	.	-3	0.2%	1	4.4
O=C1Oc2ccccc2C2(O)C3CCCCCC3C12 (stereo not given)	0.7	9	13	2.4%	4	0.6
Cc1ccccc1NCc1ccc([N+](=O)[O-])s1	1.7	-10	-5	2.5%	-3	4.8
O=C(CSc1cccc[n+]1[O-])Nc1cc(Cl)ccc1[N+](=O)[O-]	-0.2	-1	-7	-2.5%	2	6.6
COc1c2c(cc3c1C(CC(O)Cc1ccccc1)N(C)CC3)OCO2 (stereo not given)	1.2	-8	-8	-0.5%	-5	-1.0
